# Rce1 inhib = yeast Rce1p protease inhibitors, primary screen, biochemical, fluorescence, cell-free homogeneous. yeast membranes, quenched prenylated peptide cleavage fluorescence. 0.27% of 290,000 active. AID 2563, 2010. calls only. CAAX prenyl protease 2 (Saccharomyces cerevisiae (strain ATCC 204508 / S288c)), Q03530;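 active = fall in fluorescence gain of 50% or more versus controls, with final raw signal at or below 3038400; inconclusive = same 50% fall but final raw signal above 3038400; inactive = fall in fluorescence gain under 50%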;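 also: plate controls were neutral control wells for no effect and wells lacking membranes for full effect; tested at 10 µM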
# eIF4H FP inh = human eIF4H binding inhibitors, primary screen, translation initiation inhibitor project, biochemical, uHTS, fluorescence polarization; Eukaryotic translation initiation factor 4H (Homo sapiens), Q15056; eIF4H fluorescence polarization binding assay; inhibition, % at 35 µM; 0.94% of 290,000 active;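 active = 50% or more with normal probe brightness, or confirmed in later tests; inconclusive = above 50% with abnormal brightness, or retests that disagree; inactive = below 50% or failed in later tests; about a fifth of its hits are not listed in these tables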;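 also: calls also rest on retests at 20 µM and on dose response follow-up; 0% = protein and probe with vehicle and 100% = probe without protein; strong numbers were not always called active; many hits fall short of the cut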
# PABP FP inh = PABP poly(A) RNA binding inhibitors, primary screen, biochemical, fluorescence polarization, uHTS. Polyadenylate-binding protein 1 (Homo sapiens), P11940. inhibition, % at 35 µM. 1% of 290,000 active. AID 2014, 2009;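 active = 50% or more with normal probe brightness, or confirmed in later tests; inconclusive = above 50% with abnormal brightness, or retests that disagree; inactive = below 50% or failed in later tests; about a fifth of its hits are not listed in these tables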;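 also: calls also rest on retests at 20 µM and on dose response follow-up; controls were probe without protein and protein plus probe with vehicle; some compounds called inactive have numbers as strong as hits; many hits fall short of the cut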
# Target sequence (P11940 whole entry, looked up): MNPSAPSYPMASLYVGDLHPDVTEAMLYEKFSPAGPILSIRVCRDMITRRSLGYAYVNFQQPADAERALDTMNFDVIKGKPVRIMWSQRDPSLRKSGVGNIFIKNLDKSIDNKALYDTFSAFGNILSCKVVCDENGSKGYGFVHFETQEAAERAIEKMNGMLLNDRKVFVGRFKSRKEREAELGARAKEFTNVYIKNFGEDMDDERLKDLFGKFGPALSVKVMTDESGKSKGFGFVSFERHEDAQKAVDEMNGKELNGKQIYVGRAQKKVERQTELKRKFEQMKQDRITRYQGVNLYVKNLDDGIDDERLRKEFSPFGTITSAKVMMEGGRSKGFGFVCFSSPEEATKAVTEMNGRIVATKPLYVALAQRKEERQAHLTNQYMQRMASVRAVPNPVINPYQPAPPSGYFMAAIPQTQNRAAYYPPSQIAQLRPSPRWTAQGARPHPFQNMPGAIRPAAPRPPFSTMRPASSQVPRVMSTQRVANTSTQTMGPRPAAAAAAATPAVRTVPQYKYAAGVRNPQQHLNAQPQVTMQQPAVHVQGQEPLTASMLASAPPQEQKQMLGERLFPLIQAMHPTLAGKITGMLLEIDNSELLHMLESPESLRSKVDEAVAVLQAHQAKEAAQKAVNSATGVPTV
# CSC inhib = cancer stem cell viability inhibitors, primary screen, luminescence; 1.1% of 300,000 active; AID 2717, 2010; inhibition, % at 7.5 µM; cancer stem cell-like cells viability;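 active = mean at 75% or more and at least half the replicates too; inconclusive = mean and replicates disagree; tested in HMLE shEcad cells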;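 also: 0% = median of negative and 100% = median of positive control wells; the first replicate is given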
# Env fusion inh = inhibitors of HIV-1 Env-driven cell-cell fusion, primary screen, HeLa-JRFL effector, CEM21 target cells, luciferase; 1.1% of 360,000 active; inhibition, % at 12.3 µM;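 active = mean replicate inhibition score of at least 50 and every replicate individually at or above 50; inconclusive = only one of the two criteria met; inactive = mean below 50 and not all replicates reaching 50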;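 also: 0% = plate neutral controls and 100% = maraviroc near 300 nM; one replicate is shown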
# MT1-MMP act inh = blockers of MT1-MMP proenzyme processing, primary screen, HT1080 RFP-PRO-GFP cells, GFP/RFP fluorescence. GFP/RFP ratio change, % at 20 µM. Matrix metalloproteinase-14 (Homo sapiens), P50281. GFP/RFP ratio fluorescence, overnight; percent of plate control window, DMSO zero. 0.061% of 360,000 active;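 active = GFP/RFP ratio change of at least 30% with cell ATP level not reduced by more than half and red fluorescence within 50% of control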; also: strong numbers were not always called active
#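 system = RFP-PRO-GFP reporter HT1080 cells | dosing = 20 µM single dose, 1% DMSO | timing = overnight cell settling, then overnight compound exposure, 37 °C, 5% CO2 | read-out basis = GFP/RFP fluorescence ratio | controls = DMSO and RFP-L50D-GFP cell wells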
# UUG fidelity = modulators of yeast start codon fidelity, primary screen, whole organism, S. cerevisiae, single point, plate reader; S. cerevisiae UUG-firefly luciferase reporter, luminescence/redox ratio; 0.13% of 350,000 active; activity score, % at 18.7 µM;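 active = replicate mean at a twofold rise or more, about +100% in these data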;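 also: firefly luciferase made from a UUG start codon reports start codon fidelity; reporter light over untreated wells divided by growth signal over untreated wells; some hits fall short of that in this replicate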
# eIF4H FP inh retest = recorded beside eIF4H FP inh, whose call it bears; inhibition, %; compound at 20 µM; confirmation average;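 mean of two retest wells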
# PABP FP inh retest = also measured in PABP FP inh; calls as there; inhibition, %; compound at 20 µM; confirmation repeats;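 mean of two retest wells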
# MT1-MMP act inh RFP = further read-out of MT1-MMP act inh, marked with its call; RFP signal change, %; measured here: RFP expression control read;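 0 = vehicle wells; hits needed this value within 50% of zero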
# * marks the source's active call; other numbers are inactive results; i = inactive; ? = inconclusive; · = no result given; & = joins results of further samples.
SMILES,Rce1 inhib,eIF4H FP inh,PABP FP inh,CSC inhib,Env fusion inh,MT1-MMP act inh,MT1-MMP act inh RFP,UUG fidelity,others
COc1ccc2nc(/N=C/c3c(C)[nH]n(-c4ccc(C)cc4)c3=O)sc2c1,i,0,27,27,·,0,2,-14,
Cc1ccc(NC(=S)N2CCN(Cc3ccccc3)CC2)cc1,i,-6,10,3,8,2,0,·,
CCOC(=O)N1CCN(C(=O)CSc2ccc(-c3ccc(OC)c(OC)c3)nn2)CC1,i,-3,1,-16,4,3,2,0,
O=C(CN(C(=O)CCC(=O)Nc1nccs1)c1cccc(C(F)(F)F)c1)NCC1CCCO1 (centres undefined),i,-6,1,·,-4,0,-1,-9,
O=C(CSCc1ccc(Cl)cc1)N1CCOCC1,i,1,0,-10,-3,1,-1,·,
CCn1c(CNc2ccccc2Cl)nnc1SCCN1CCCCC1,i,3,-1,4,-15,3,9,-13,
COc1ccc(CCNC(=O)CCNC(=O)c2ccc([N+](=O)[O-])cc2)cc1,i,-5,0,-5,4,0,3,-12,
O=C(COC(=O)C1CCC1)Nc1ccccc1Sc1ccccc1,i,-8,-1,0,-26,-10,-3,-4,
OC1(CNCc2cn[nH]c2-c2cc3ccccc3o2)CCCCC1,i,4,1,·,-3,3,1,3,
NS(=O)(=O)c1ccc(CCNC(=O)c2coc3ccccc3c2=O)cc1,i,-8,-4,-6,-6,-5,1,-18,
O=C1CNC(=O)/C(=C/c2cccs2)N1,i,-4,-6,·,-16,1,4,·,
O=c1c2cc([N+](=O)[O-])ccc2nc(CN2CCN(c3ccccn3)CC2)n1-c1ccccc1F,i,4,4,-10,3,0,5,2,
COc1cc(/C=N/NC(=O)c2cccc([N+](=O)[O-])c2)ccc1O,i,5,-14,-8,-3,4,0,·,
O=C(O)Cn1cc(C(=O)c2ccco2)c2ccccc21,i,5,29,-3,2,4,0,-7,
Cc1ccc(NC(=O)CSc2nc(=O)n(CCN(C)C)c3c2CCCC3)c(C)c1,i,·,·,3,8,-6,2,-11,
Cc1cc([N+](=O)[O-])cc2c1-c1ncccc1C2=Nc1ccccc1,i,-4,-2,-9,·,-5,-4,·,
O=C(Nc1ccn(CCCNCc2ccccn2)c(=O)n1)OCc1ccccc1,·,·,·,·,-11,0,4,-30,
COc1ccccc1N1CCN(CCCNC(=O)C2CCCN(c3ncnc4c3nc3n4CCCCC3)C2)CC1 (centres undefined),i,-2,2,-5,15,5,-5,-13,
Cc1c(NC2=CC(=O)CC(C)(C)C2)c(=O)n(-c2ccccc2)n1C,i,1,-13,-2,-6,-2,1,1,
CN(C(=O)c1ccc(NC(=O)Cc2cccc(NC(=O)C3CCCN(C(=O)C4CCC4)C3)c2)cc1)C1CC1 (centres undefined),·,·,·,·,11,5,7,-3,
COc1ccc(CCNC(=O)c2cnn3ccccc23)c(OC)c1OC,i,-11,-4,-14,18,-3,-2,-12,
c1ccc(-c2cc(-c3nnc4n3N=C(c3ccc5ccccc5c3)CS4)[nH]n2)cc1,i,-13,30,92*,-149,-5,-15,2,
CCOc1ccccc1C(=O)NCC(=O)O,i,2,17,-8,·,-1,2,-4,
Cc1ccc(S(=O)(=O)N2CCN(c3ncnc4c3cnn4-c3ccccc3)CC2)cc1,i,-3,-10,-14,·,1,-6,-5,
S=C(Nc1ccc(Cl)cc1)NC1CCCCC1,i,-4,5,9,-16,6,-1,-18,
COc1cc(N(C(=O)Cc2cccs2)C(C(=O)NC2CCCCC2)c2cccc(OC)c2OC)ccc1-n1cnnn1 (centres undefined),i,2,15,8,-28,-12,-8,·,
CC(C)(C)N(Cc1ccccc1)C(=O)COC(=O)Cn1cnc2ccccc2c1=O,i,2,-10,-2,2,0,2,·,
O=C(O)c1cccc(S(=O)(=O)Nc2ccccc2Oc2ccccc2)c1,·,·,·,·,-14,0,-1,-11,
Cc1cc(C)n2nc(C(=O)OCC(=O)c3cc(C)n(CC4CCCO4)c3C)nc2n1 (centres undefined),i,13,-8,·,6,0,4,·,
COc1cccc(CNCCSc2nnnn2C)c1OC,i,-3,-9,-12,·,1,5,-33,
CCOC(=O)c1cnn(-c2ccccc2)c1-n1cccc1,i,-10,-6,44,-11,2,7,-16,
COc1ccc(N(CC(=O)Nc2ccc(S(=O)(=O)N3CCOCC3)cc2)S(=O)(=O)c2ccccc2)cc1,i,-1,-7,-13,·,-3,-5,-10,
CCOc1ccccc1NC(=O)CSc1nc2[nH]ncc2c(=O)[nH]1,i,·,·,-3,·,2,-3,·,
Cc1ccc(-n2c(SCC(=O)N3CCC(C(=O)O)CC3)nc3ccccc3c2=O)cc1C,i,8,3,-13,-25,1,-1,1,
CC(Oc1ccc(F)cc1)C(=O)Nc1cc(S(=O)(=O)N2CCOCC2)ccc1N1CCCC1 (centres undefined),i,0,0,3,-10,-1,1,-9,
C/C(=N\Nc1ccc(Cl)cc1)c1ccncc1,i,-2,15,7,4,-1,-2,3,
O=C(O)C1CCCN1c1ncccn1 (centres undefined),i,-2,-1,1,-20,0,2,-12,
COc1ccc(S(=O)(=O)Nc2cccc(C)c2C)c2cccnc12,i,-5,-6,·,19,1,-5,2,
CCOC(=O)C1CCN(CC(=O)N(CC(C)C)c2c(N)n(CC(C)C)c(=O)[nH]c2=O)CC1,i,9,31,-5,6,3,9,·,
CC(Nc1ccc(F)cc1)=[N+](C)CCNS(=O)(=O)c1ccc(Cl)cc1,i,11,51*,10,-4,-6,-3,-15,eIF4H FP inh retest=0;PABP FP inh retest=100*
C[C@@H]1CN([C@@H](C)CO)C(=O)CCCn2nncc2CO[C@H]1CN(C)C(=O)c1ccc(N2CCN(C)CC2)cc1,·,·,·,·,-43,3,6,-22&-11&-9,
NS(=O)(=O)c1ccc(NS(=O)(=O)/C=C/c2ccccc2)cc1,i,-2,1,-20,·,0,1,-10,
COc1cccc(CC2(CO)CCCN(Cc3sc(N4CCCC4)nc3Cl)C2)c1 (centres undefined),i,56*,23*,-19,0,-11,-2,·,eIF4H FP inh retest=90*;PABP FP inh retest=74*
COc1ccc(-c2coc3c(C(=O)NC4CCCCC4)cccc23)c(C)c1,·,·,·,·,17,-2,-26,-4,
O=C(Oc1ccc(Br)cc1)c1cccnc1,i,0,-4,5,10,-5,-2,-12,
Cc1cc(C)nc(SCc2nnc(SCC(=O)Nc3ccc(Cl)c(C(F)(F)F)c3)o2)n1,i,2,10,-3,·,2,-1,-18,
CC(=O)c1cccc(NC(=O)CN(C2CCCCC2)S(C)(=O)=O)c1,·,-4,-3,0,-12,-2,0,-9,
Cc1cc(OC(=O)c2cccc(Br)c2)c([N+](=O)[O-])c(=O)[nH]1,i,-11,-14,-15,-26,3,8,-15,
CC(C)c1nnc(NC(=O)CSc2ccccc2)s1,i,-2,-14,-9,·,2,3,-19,
Cc1ccc(Sc2ncccc2C(=O)O)cc1,i,-5,-1,-10,8,-6,-3,-18,
CCCCCC1CCC(c2n[nH]c(=S)n2C)CC1 (centres undefined),i,-1,-11,31,-6,-3,-10,·,
O=C(Nc1ccc(Cl)cc1)N(CCCN1CCOCC1)Cc1cccs1,i,-8,5,-7,6,-2,3,-21,
COc1ccc(C(C(=O)NC(C)(C)C)N(C[C@H]2CC[C@@H]([C@@H]3CC[C@H](CO)O3)O2)C(=O)c2ccccc2)cc1 (some centres undefined),·,·,·,·,62*,3,5,-10,
CCCCC(=O)Nc1ccc2c(c1)nc1n2CCOC1,i,-2,-3,·,-55,5,1,-18,
Cc1ccc(OCc2cn3cccnc3n2)cc1,i,17,-1,7,-27,-6,-2,·,
CCC1(c2ccc(Cl)cc2)NC(=O)N(CC(=O)N2CCN(C(=O)c3ccco3)CC2)C1=O (centres undefined),·,·,·,6,-30,1,-2,0,
CCC1S/C(=N\S(=O)(=O)c2cccs2)N(C2CCCCC2)C1=O (centres undefined),i,3,-8,11,·,-3,-3,0,
CC(=O)NC12CC3CC(C1)CC(C(=O)N(C)CC(=O)Nc1cccc(F)c1)(C3)C2,·,·,·,-26,6,-2,0,-18,
CN(Cc1ccccc1)C(=O)CCCn1c(=O)[nH]c2cc(Cl)ccc2c1=O,i,-4,-10,-16,·,-3,-4,-11,
CN1CCN(c2ccc(CNC(=O)C3Cc4c(-c5ccc6c(c5)OCO6)ccnc4O3)cc2)CC1 (centres undefined),·,·,·,·,4,2,0,7,

# Continuation.
SMILES,Rce1 inhib,eIF4H FP inh,PABP FP inh,CSC inhib,Env fusion inh,MT1-MMP act inh,MT1-MMP act inh RFP,UUG fidelity,others
Cc1ccc(CN(C(=O)COc2ccc([N+](=O)[O-])cc2)C2CCS(=O)(=O)C2)o1 (centres undefined),i,-7,13,-2,7,1,-1,-3,
O=C(Nc1ncc2c(n1)-c1ccccc1OC2)c1ccc(F)cc1,i,-4,-4,·,5,-6,-7,-15,
COc1ccc(N/C=C/C(=O)c2ccccc2)cc1,i,-4,9,32,-283,1,1,-64,
Cc1ccc(O)c(CNc2ccccn2)c1,i,-5,-1,·,·,4,8,-8,
CC(C)N1CCc2c(sc(NC(=O)c3ccco3)c2C(N)=O)C1,i,41,23,-5,-3,-11,0,-20,
COC(=O)c1cc(S(=O)(=O)Nc2nn(C)c3ccccc23)oc1C,i,8,1,1,-11,4,8,-12,
Nc1ccc(-c2nnc(-c3ccccc3)o2)cc1,i,-21,-3,12,-36,-1,-3,-4,
CCOc1ccc(NC(=O)CN2C(=O)S/C(=C/c3cccn3C)C2=O)cc1,i,5,-8,-2,8,3,4,·,
Cc1cc(CNC(=O)c2cccc([N+](=O)[O-])c2C)c2ccccc2n1,i,-2,-2,0,37,-5,-31,-11,
COc1ccc2c(c1)CC/C(=C\c1ccc(C)o1)C2=O,i,?,?,7,-282,-16,0,-25,
Cc1c(NC(=O)C2Cc3ccccc3CN2C(=O)c2ccco2)c(=O)n(-c2ccccc2)n1C (centres undefined),i,-6,8,9,·,-1,3,-45,
Cc1ccc(N(CC(=O)NC(C)C)C(=O)CCC(=O)Nc2nccs2)cc1,i,-8,-13,-6,0,-1,0,-17,
CCOc1ccc(N(C)S(=O)(=O)c2cc(-c3cc(C)no3)ccc2C(C)C)cc1,i,-18,13,17,79*,20,21,·,
CCN1CCN(c2cc(C)c3cc(NC(=S)NCc4cccs4)ccc3n2)CC1,i,3,-4,44,-13,8,-6,-17,
Cn1c(O)c(C2=c3ccccc3=NC2=O)sc1=Nc1ccc(Cl)cc1,i,3,-1,20,-69,1,-3,-20,
O=C(Nc1ccc2c3c(cccc13)CC2)c1ccccc1,·,·,·,·,-22,-8,-1,-37,

# Part of the list above in order of molar mass, rising:
SMILES,Rce1 inhib,eIF4H FP inh,PABP FP inh,CSC inhib,Env fusion inh,MT1-MMP act inh,MT1-MMP act inh RFP,UUG fidelity,others
COc1ccc2c(c1)CC/C(=C\c1ccc(C)o1)C2=O,i,?,?,7,-282,-16,0,-25,
CC(C)N1CCc2c(sc(NC(=O)c3ccco3)c2C(N)=O)C1,i,41,23,-5,-3,-11,0,-20,
CCN1CCN(c2cc(C)c3cc(NC(=S)NCc4cccs4)ccc3n2)CC1,i,3,-4,44,-13,8,-6,-17,
